Compound activity (PubChem)
2A StopGo: lowers the luciferase signal of an FMDV 2A StopGo reporter. AID 1159524. 410,000 tested, 1.2% active. human cells with a luciferase reporter of 2A StopGo recoding; control for the full effect not named in the record. Potency, µM (doses to about 57.9 µM), without a hit: at the highest dose signal change, negative = less light; active = well fitted falling curve with a large enough effect; inconclusive = small, poorly fitted or top-dose-only effect; inactive = no such curve, though single readings can be large or run the other way; tested in HEK293T cells; also: % is scaled to controls: 0 for no effect and ±100 for the full control effect; nearly all actives have a fitted effect of over 45% in size; luciferase light after 4 h
RE007 growth inh: less growth of the S. pombe RE007 Vpr strain. 360,000 tested, 0.21% active. S. pombe RE007 Vpr strain, BacTiter-Glo ATP luminescence, 24 h; control for the full effect not named in the record. Potency, µM (highest dose often 92.2 µM), for inactives: top-dose activity change, negative = less growth; active = well fitted falling curve with a large enough effect; inconclusive = small, poorly fitted or top-dose-only effect; inactive = no such curve, though single readings can be large or run the other way;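 also: % is scaled to controls: 0 for no effect and ±100 for the full control effect; nearly all actives have a fitted effect of over 50% in size; the assay follows cell death caused by Vpr and the record does not say whether a fall means rescue or toxicity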
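Fission yeast strain RE007, carrying one chromosomally integrated HIV-1 vpr copy, was seeded at OD 0.01 in PMG+AL medium with 23 nL pinned compound. After 24 h at 30 °C and 99% humidity, viability was read by BacTiter-Glo luminescence.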
SARS PLP yeast: SARS-CoV PLP inhibition in yeast. AID 485353. S. cerevisiae expressing SARS-CoV PLpro, growth rescue; control for the full effect not named in the record. 330,000 tested, 0.19% active. Potency, µM (series often up to 32.9 µM), for inactives: top-dose activity, positive = growth rescue; active means well fitted rising curve with a large enough effect; inconclusive means small, poorly fitted or top-dose-only effect; inactive means no such curve, though single readings can be large or run the other way; also: 0% is about no effect; nearly all actives have a fitted effect of over 55% in size; growth read by luminescence after 48 h
NS1 inh: blocks influenza NS1 protein function; Potency, µM (titrated, usually from 46.1 µM), inactives show at the top dose activity, positive = more growth; AID 2326; 270,000 tested, 0.4% active; S. cerevisiae slowed by influenza A NS1, growth recovery by OD600; active means well fitted rising curve with a large enough effect; inconclusive means small, poorly fitted or top-dose-only effect; inactive means no such curve, though single readings can be large or run the other way; also: nearly all actives have a fitted effect of over 50% in size
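A cell-based growth assay was used: compounds that relieve NS1-induced slow growth of budding yeast raise OD600. Assay medium was yeast nitrogen base with ammonium sulphate and -URA supplement, pH 6.0, with 2% galactose.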
MARV entry inh: Marburg virus entry inhibition. Marburg virus pseudotyped entry inhibition, cell reporter; control for the full effect not named in the record; about a third of the inactives were read at about 46 µM. Potency, µM (doses to about 37.8 µM), for inactives: at the top dose activity change, negative = inhibition, actives largely listed as inhibitors. 300,000 tested, 1.8% active; active = well fitted inhibition curve with a large enough effect; inconclusive = small, poorly fitted or top-dose-only effect, or effect the other way; inactive = flat fitted curve, though single readings scatter; tested in HEK293 cells; about a fifth of its hits are not listed in these tables; also: % is scaled to controls: 0 for no effect and ±100 for the full control effect; luciferase read-out
LASV entry inh: blocks Lassa virus binding to or entry into cells; AID 540256; Lassa virus pseudotype entry inhibition, cell reporter; control for the full effect not named in the record; Potency, µM (top dose mostly 37.9 µM), for inactives: at the highest dose activity change, negative = inhibition, hits mostly inhibitors; 300,000 tested, 1.2% active; active means well fitted inhibition curve with a large enough effect; inconclusive means small, poorly fitted or top-dose-only effect, or effect the other way; inactive means flat fitted curve, though single readings scatter; tested in HEK293 cells; also: % is scaled to controls: 0 for no effect and ±100 for the full control effect; nearly all actives have a fitted effect of over 50% in size; luciferase read-out
Cruzain inh noDet: blocks cruzain activity in detergent-free assay. P25779. 200,000 tested, 2.3% active. Potency, µM, for inactives: max response, negative = inhibition, actives largely listed as inhibitors. purified cruzain, Z-FR-AMC fluorescence, no detergent. AID 1476;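 also: plate controls were enzyme without inhibitor for no effect and buffer without enzyme for full effect; nearly all actives have a fitted effect of over 40% in size; top concentration of the series not given in the record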
Target sequence (P25779 123-467 limits assumed): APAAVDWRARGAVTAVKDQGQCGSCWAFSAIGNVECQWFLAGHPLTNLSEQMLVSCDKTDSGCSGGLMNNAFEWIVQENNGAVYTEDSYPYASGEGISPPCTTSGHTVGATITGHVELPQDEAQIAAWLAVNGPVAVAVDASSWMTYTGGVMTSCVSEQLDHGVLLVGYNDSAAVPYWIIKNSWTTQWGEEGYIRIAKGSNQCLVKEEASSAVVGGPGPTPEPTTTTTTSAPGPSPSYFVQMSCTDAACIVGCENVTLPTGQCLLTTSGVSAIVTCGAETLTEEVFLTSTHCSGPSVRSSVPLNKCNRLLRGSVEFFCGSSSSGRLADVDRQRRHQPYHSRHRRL
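Purified cruzain at 1.5 nM, pre-incubated 15 min with compound at room temperature in 100 mM sodium acetate pH 5.5, 5 mM DTT, 0.00005% Triton X-100. Reaction started with 2 uM Z-FR-AMC; AMC fluorescence increase over 60 s gives rate.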
Cruzain Triton: inhibitors of Trypanosoma cruzi cruzain with detergent; AID 1478; 200,000 tested, 0.43% active; Potency, µM, for inactives: max response, negative = inhibition, most hits filed as inhibitors; purified cruzain, Z-FR-AMC fluorescence, 0.01% Triton;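 also: plate controls were neutral wells for no effect and buffer without enzyme for full effect; nearly all actives have a fitted effect of over 40% in size; top concentration of the series not given in the record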
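Cruzain (1.5 nM) preincubated 15 min at RT with compound in 100 mM sodium acetate pH 5.5, 5 mM DTT, 0.01% Triton X-100. Reaction started with 2 uM Z-FR-AMC; AMC fluorescence (ex 360/em 450 nm) change over 60 s gave rate.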
Starred values were filed as active, the others as inactive; ? = inconclusive; . = no result given; & = joins results of further samples; [ ] = another dose, or the depositor's remark. Unless noted, calls follow the shape of the dose curve; as a rule, active = well fitted curve in the direction sought with a large enough effect; inconclusive = small, poorly fitted or top-dose-only effect, or another doubt; inactive = no such curve, though single readings can be large; an effect the other way counts as inactive or inconclusive. Potency is read from the fitted curve at half-maximal effect.

Start of the data: the first 12 compounds, to show the layout:
smiles,2A StopGo,RE007 growth inh,SARS PLP yeast,NS1 inh,MARV entry inh,LASV entry inh,Cruzain inh noDet,Cruzain Triton
Cc1cc(C)c(S(=O)(=O)N2CCCOC2CNC(=O)C(=O)NCc2ccncc2)c(C)c1 (stereo not given),-10%,10%,7%,-19%,-1%,6%,-12%,-0.2%
CN(C)c1cc(N)c2ccccc2n1 (tested in a mixture with another compound),4%,6%,14%,0%,-3%,?,-6%,-4.4%
NC(=O)CCC(=O)N1CCCC(C(=O)c2ccc(C(F)(F)F)cc2)C1 (stereo not given),-21%,5%,12%,11%,.,.,.,.
CC(C)Oc1ccc(CNC(=O)Cn2nc(N3CCN(c4ccccc4)CC3)ccc2=O)cc1,?,.,.,.,.,-22%[46.1 µM],?,-0.9%
CN(C)c1ccc(NC(=O)c2sc3nc4c(cc3c2N)N2CCC4CC2)cc1,-26%,.,.,.,?,21%[46.1 µM],-1%,-1.1%
Cc1cccc(Nc2c(-c3ccc(N4CCOCC4)cc3)nc3ncccn23)c1,-14%,-9%,-2%,24%,-1%,4%,26%,-8.0%
NCc1nc2cccnc2n1Cc1ccccc1Cl,-20%,.,.,.,4%[46.1 µM],13%[46.1 µM],-2%,0.0%
COc1ccccc1NC(=O)N1CCN(C(=O)Nc2ccccc2OC)CC1,0%,-12%,-1%,-2%,.,.,.,.
CCOC(=O)CNC(=O)C1(/C=C/c2ccccc2)CC(=O)N1c1ccc(OC)cc1 (stereo not given),0%,-14%,0%,-6%,?,-26%[46.1 µM],.,.
COC(=O)c1cnn(-c2ccc(C(=O)Nc3cc(OC)c(OC)c(OC)c3)cc2)c1N,-23%,.,.,.,.,-2%[46.1 µM],8%,-0.2%
O=C(Nc1cc(N2CCCCC2)ncn1)c1ccc(F)cc1,33%[activator],-11%,0%,-6%,1%,9%,.,.
CCOc1ccc(NC(=O)CN2CCN(CC(=O)Nc3ccc(OC)cc3)CC2)cc1,-20%&-18%,-4%,11%,-2%,-6%&-6%,-4%[46.1 µM],2%&18%,-1.0%&-5.1%

The listing, from the start:
smiles,2A StopGo,RE007 growth inh,SARS PLP yeast,NS1 inh,MARV entry inh,LASV entry inh,Cruzain inh noDet,Cruzain Triton
Cc1cc(C)c(S(=O)(=O)N2CCCOC2CNC(=O)C(=O)NCc2ccncc2)c(C)c1 (stereo not given),-10%,10%,7%,-19%,-1%,6%,-12%,-0.2%
CN(C)c1cc(N)c2ccccc2n1 (tested in a mixture with another compound),4%,6%,14%,0%,-3%,?,-6%,-4.4%
NC(=O)CCC(=O)N1CCCC(C(=O)c2ccc(C(F)(F)F)cc2)C1 (stereo not given),-21%,5%,12%,11%,.,.,.,.
CC(C)Oc1ccc(CNC(=O)Cn2nc(N3CCN(c4ccccc4)CC3)ccc2=O)cc1,?,.,.,.,.,-22%[46.1 µM],?,-0.9%
CN(C)c1ccc(NC(=O)c2sc3nc4c(cc3c2N)N2CCC4CC2)cc1,-26%,.,.,.,?,21%[46.1 µM],-1%,-1.1%
Cc1cccc(Nc2c(-c3ccc(N4CCOCC4)cc3)nc3ncccn23)c1,-14%,-9%,-2%,24%,-1%,4%,26%,-8.0%
NCc1nc2cccnc2n1Cc1ccccc1Cl,-20%,.,.,.,4%[46.1 µM],13%[46.1 µM],-2%,0.0%
COc1ccccc1NC(=O)N1CCN(C(=O)Nc2ccccc2OC)CC1,0%,-12%,-1%,-2%,.,.,.,.
CCOC(=O)CNC(=O)C1(/C=C/c2ccccc2)CC(=O)N1c1ccc(OC)cc1 (stereo not given),0%,-14%,0%,-6%,?,-26%[46.1 µM],.,.
COC(=O)c1cnn(-c2ccc(C(=O)Nc3cc(OC)c(OC)c(OC)c3)cc2)c1N,-23%,.,.,.,.,-2%[46.1 µM],8%,-0.2%
O=C(Nc1cc(N2CCCCC2)ncn1)c1ccc(F)cc1,33%[activator],-11%,0%,-6%,1%,9%,.,.
CCOc1ccc(NC(=O)CN2CCN(CC(=O)Nc3ccc(OC)cc3)CC2)cc1,-20%&-18%,-4%,11%,-2%,-6%&-6%,-4%[46.1 µM],2%&18%,-1.0%&-5.1%
CCOC(=O)c1c(NC(=O)Cn2nnc(-c3ccccc3Cl)n2)sc(C)c1C,-19%,-4%,4%,9%,0%[46.1 µM],2%,-9%,2.7%
COc1ccc(N2CCN(CCCNC(=O)c3sc4ncccc4c3-n3cccc3)CC2)cc1,-28%,.,.,.,.,-7%[46.1 µM],-9%,-4.4%
O=C(COC(=O)CCCNC(=O)c1ccc(Cl)cc1)Nc1cc(Cl)c(Cl)cc1Cl,4%,1%,-13%,3%,-23%,20%,-4%,-12%
CCC(=O)Nc1nnc(S(=O)(=O)N(CC)c2ccc(OC)cc2)s1,33%[activator],5%,-1%,5%,.,.,.,.
CC/C(=N/NC(=O)c1ccc(Br)o1)c1ccc(Cl)cc1,-2%,1%,4%,-5%,-15%,17%,?,-4.6%
Cc1ccc(NC(=O)c2ncc(Cl)c(Cl)c2Cl)cc1C,25%,-12%,0%,3%,9%[46.1 µM],8%,.,.
CCOC(=O)c1ccc(N=c2ssnc2Cl)cc1,-22%,?,-3%,.,.,?,.,.
O=S(=O)(NCc1nc2cccnc2n1Cc1ccc(F)cc1)c1ccc(Cl)s1,44%[activator],.,.,.,.,-5%[46.1 µM],-10%,-3.6%
CC(C)Nc1ccc(C(CC(N)=O)NC(=O)Cc2cccc3ccccc23)cc1[N+](=O)[O-] (stereo not given),-16%,-13%,-1%,-4%,.,.,.,.
CNc1snc(C)c1C(=O)OCC(=O)NCc1ccccc1OC,-21%,2%,-3%,.,-1%,?,.,.
CCc1ccc(CNc2ccc3c(c2)ncn3C(C)(C)C)cc1,0%&24%,1%,0%,-2%,10µM*,1.8µM*,-1%,-9.2%
Cn1c(=O)oc2cc(S(=O)(=O)NCc3ccc(Cl)cc3)ccc21,0%,2%,-1%,-9%,.,.,.,.
CCOc1ccc(OCCC(=O)OCC(=O)NC2CC2)cc1,-13%,-8%,.,.,-1%[46.1 µM],20%,.,.
Cc1ccc(C(C)C)cc1OCC(=O)N1CCN(C(=O)c2ccco2)CC1,-27%,1%,7%,.,2%,?,.,.
CC(C)CN(C(=O)C1CC1)C1CCS(=O)(=O)C1 (stereo not given),-13%,-6%,0%,.,7%[46.1 µM],5%,.,.
Cc1cccnc1-n1c(CCN2C(=O)c3ccccc3C2=O)nc2ccccc2c1=O,2%,1%,11%,-9%,5%&1%,7%,26%,5.3%
Cc1cc(C)cc(NC(=O)CSc2nnnn2-c2cccnc2)c1,-17%,1%,0%,-1%,2%[46.1 µM],2%[46.1 µM],.,.
CCOC(=O)CC(NC(=O)C(CC)c1ccccc1)c1ccccc1Cl (stereo not given),-8%,-6%,1%,-9%,?,?,-19%,-1.1%
CCS(=O)(=O)N1CCC(C(=O)Nc2cc(Cl)ccc2O)CC1,-20%,18%,-25%,-95%,0%,-2%,-4%,-1.4%
COc1cc(C=C(C(C)=O)C(C)=O)ccc1O,?,0%,12%,3%,2%,-21%,-4%,0.5%

In the list so far, these have a furan ring, fused or not.
smiles,2A StopGo,RE007 growth inh,SARS PLP yeast,NS1 inh,MARV entry inh,LASV entry inh,Cruzain inh noDet,Cruzain Triton
CC/C(=N/NC(=O)c1ccc(Br)o1)c1ccc(Cl)cc1,-2%,1%,4%,-5%,-15%,17%,?,-4.6%
Cc1ccc(C(C)C)cc1OCC(=O)N1CCN(C(=O)c2ccco2)CC1,-27%,1%,7%,.,2%,?,.,.

Hits appear at their usual frequency (roughly 4.8% active in at least one column).
